# Compound activity deposited in PubChem by National Center for Advancing Translational Sciences (NCATS).
# FEN1 inh: qHTS Assay for the Inhibitors of Human Flap endonuclease 1 (FEN1). hit rate 0.35% among 390,000. AID 588795, 2011. P39748. Potency, µM (top dose mostly 114 µM), without a hit: at the highest dose activity change, negative = inhibition, usual class: inhibitors. Recombinant FEN1 flap cleavage, fluorescence, 15 min; also: nearly all actives have a fitted effect of over 65% in size
# Target sequence (P39748 whole entry, looked up): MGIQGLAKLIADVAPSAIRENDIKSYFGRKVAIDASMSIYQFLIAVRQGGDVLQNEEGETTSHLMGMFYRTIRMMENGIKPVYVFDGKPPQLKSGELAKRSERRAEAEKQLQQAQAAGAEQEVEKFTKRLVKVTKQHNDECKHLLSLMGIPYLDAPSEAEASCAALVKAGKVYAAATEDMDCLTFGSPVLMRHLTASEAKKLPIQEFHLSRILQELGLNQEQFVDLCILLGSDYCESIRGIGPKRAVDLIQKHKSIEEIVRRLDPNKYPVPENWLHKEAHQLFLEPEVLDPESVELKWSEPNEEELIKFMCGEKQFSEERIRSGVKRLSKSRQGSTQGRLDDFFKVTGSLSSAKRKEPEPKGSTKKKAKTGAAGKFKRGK
#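 Compounds are tested as a concentration series against 10 nM FEN1; after a 15 min room-temperature preincubation, 50 nM substrate starts cleavage, with plate reads at 0 and 15 min. Normalized responses are fitted by a Hill equation.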
# N370S GC mod: qHTS Assay for Inhibitors and Activators of N370S glucocerebrosidase as a Potential Chaperone Treatment of Gaucher Disease. Lysosomal acid glucosylceramidase (Homo sapiens), P04062. N370S GC spleen homogenate, 4MU-glucoside fluorescence. Potency, µM (titrated, usually from 59.4 µM), inactives show top-dose activity change, negative = inhibition, hits mostly inhibitors. hit rate 0.092% among 330,000. AID 2101, 2009;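 also: 0% = full enzyme activity and -100% = no enzyme basal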
# * marks the source's active call; other numbers are inactive results; u = inconclusive; x = not tested or not shown; & = joins results of further samples; [ ] = remark or other dose. Calls follow the shape of the dose curve; as a rule, active = well fitted curve in the direction sought with a large enough effect; inconclusive = small, poorly fitted or top-dose-only effect, or another doubt; inactive = no such curve, though single readings can be large; an effect the other way counts as inactive or inconclusive. Unless noted, % is scaled to controls: 0 for no effect and ±100 for the full control effect; potency is read from the fitted curve at half-maximal effect.
# The line under a structure holds: N370S GC mod, FEN1 inh
CCc1ccc(-c2cc3c(=O)n(CC(=O)NCCN4CCCCC4C)nc(C)n3n2)cc1 (centres undefined)
  -15%, 14%
COCCn1nnnc1C(c1ccc(Cl)cc1)N1CCSCC1 (centres undefined)
  9%, -2%
C=C(C)CN1C(=O)C(O)(CC(=O)c2ccc3c(c2)OCCO3)c2ccccc21 (centres undefined)
  -10%, 8%
CC(=O)c1ccc(-n2nnnc2SCC(=O)N2CCc3ccccc3C2)cc1
  -6%, 1%
CCNc1nc(Oc2ccc(=O)n(C)n2)nc(N2CCOCC2)n1
  -1%, -5%
Cc1ccc(Nc2nnc(SCC(=O)NCCN3C(=O)CSC3=O)s2)cc1C
  -8%, 18%
Cc1nc(C)c(-c2ccccc2)c(=O)[nH]1
  10%, 0%
O=C(COc1ncnc2sccc12)NC1CCS(=O)(=O)C1 (centres undefined)
  1%, -9%
COc1ccccc1-n1c(C)nnc1SCC(N)=O
  -1%, -11%
CN(C)c1ccc(NC(=O)CN2CCN(CC(=O)Nc3ccc(F)cc3)CC2)cc1
  -1%, -3%
O=C(Cn1nc2sc3ccccc3n2c(=O)c1=O)c1cccs1
  -4%, 13%
COc1ccccc1CNC(=O)c1cc2c(s1)-c1ccc(Cl)cc1SC2
  x, 3%
CCc1ccc(NC(=O)Cn2cnc3c(=O)n(C)c(=O)n(C)c32)cc1
  0%, 0%
CCN(CC)C(=O)CC(c1ccc(F)cc1)c1ccc(OC)cc1 (centres undefined)
  -6%, -5%
NC(=O)NC(=O)COC(=O)c1ccccc1OCc1ccc(F)cc1
  22%, 3%
COc1cc(C(=O)N[C@H](C(=O)NC(C)C23CC4CC(CC(C4)C2)C3)C(C)C)cc(OC)c1OC (some centres undefined)
  0%, 1%
CC(=O)NS(=O)(=O)c1ccc(NC(=O)/C=C/c2ccccc2Cl)cc1
  -18%, 10%
O=C(CSc1nc(N2CCCCC2)nc(N2CCCCC2)n1)Nc1nccs1
  3%, 0%
Cc1ccc(NC(=O)CN2C(=O)S/C(=C/c3ccc(-c4cccc(C(=O)O)c4)o3)C2=O)cc1
  -15%, 20µM*
CCC(=O)N1CCN(c2ccc(NC(=S)NC(=O)COc3ccccc3)cc2)CC1
  1%, 13%
COc1cccc(NC(=O)CNC(=O)c2ccccc2)c1
  0%, 3%
CC(=O)C1=C(O)C(=O)N(c2cccc(C(=O)O)c2)C1c1ccccc1F (centres undefined)
  6%, 14%
CCCCCn1c(CN2CC(C)OC(C)C2)nc2c1c(=O)n(C)c(=O)n2C (centres undefined)
  -10%, 15%
COc1ccc(C2CC(=O)N3CN(c4ccc(C)c(Cl)c4)CSC3=C2C#N)cc1 (centres undefined)
  -1%, -31%
CCOC(=O)c1sc(NC(=O)CSc2nnnn2-c2ccccc2)nc1C
  3%, 19%
CN(C)S(=O)(=O)Nc1ccc(Oc2ccccc2)cc1
  6%, 4%
O=C(Cn1ncn2nc(-c3ccccc3)cc2c1=O)NCc1ccccn1
  -14%, 2%
CCOC(=O)C1(Cc2cccc(Cl)c2)CCCN(C(=O)CN2C(=O)CSC2=O)C1 (centres undefined)
  2%, -20%
Cc1cc(C(=O)OCC(=O)NC2CCCCC2)c(C)o1
  5%, -5%
COc1ccc(Cl)cc1NC(=O)CN1C(=O)CCS(=O)(=O)c2ccccc21
  14%, 4%
COc1ccccc1CNC(=O)C1CCCN(S(=O)(=O)c2ccc3c(c2)oc(=O)n3C)C1 (centres undefined)
  x, 1%
CCOC(=O)c1c(NC(=O)Cn2nc(C(F)F)cc2C(F)F)sc(C)c1C
  x, -12%
O=C(c1ccc(S(=O)(=O)c2ccccc2Cl)c([N+](=O)[O-])c1)N1CCN(Cc2ccccc2)CC1
  -17%, -2%
CC(OC(=O)C1CC1)C(=O)Nc1cc(Cl)cc(Cl)c1 (centres undefined)
  x, -15%
CC(=O)c1cc(C#N)c(SCc2ccccc2)nc1C
  14%, -10%
COc1ccc(OC)c(/C=N/NC(=O)CSc2cc(C)nc3c(OC)cccc23)c1
  16%, 2%
Cc1c(C(=O)NNC(=O)Nc2ccc([N+](=O)[O-])cc2)oc2ccccc12
  0%, -2%
O=C(Nc1ccc(Br)c(C(F)(F)F)c1)c1ccc(C(F)(F)F)cc1
  11%, -17%
CC(C)CNS(=O)(=O)c1ccc(C(=O)Nc2ccc3c(c2)OCCO3)cc1
  0%, -13%
CC1CCN(c2nc(NCc3ccco3)nc(N)c2[N+](=O)[O-])CC1
  5%, -10%
CNC(=O)c1nc(C)n(-c2cc(Cl)ccc2Cl)n1
  -13%, -3%
O=C(COC(=O)Cn1cnc2ccccc21)Nc1ccc2c(c1)C(=O)c1ccccc1C2=O
  4%, -5%
COC(=O)C1=C(C)N(Cc2ccccc2)C(=NCC(C)C)N[C@H]1c1cccc(C(F)(F)F)c1
  x, -7%
O=C(CNCc1ccncc1)Nc1cc(S(=O)(=O)N2CCCCC2)ccc1Cl
  5%, -1%
O=C(NCc1ccco1)c1cccc(NS(=O)(=O)c2ccccc2F)c1
  3%, -5%
CC(Oc1ccc(C#N)cc1)C(=O)c1ccc(F)c(F)c1 (centres undefined)
  -10%, -11%
CCC(C)/C(C)=N/NC(=O)c1ccccc1OCCOc1ccccc1 (centres undefined)
  24%, -13%
O=C(c1cn(-c2ccccc2)nc1-c1ccccc1)N1CCOCC1
  -13%, -18%
COc1ccc(NC(=O)c2[nH]ncc2[N+](=O)[O-])cc1
  -7%, -9%
CCOC(=O)C1CCN(C(=O)CCn2c(=O)c3cccn3c3cccnc32)CC1
  3%, 15%
C[C@@H]1COC(=O)[C@@H](Cc2ccc(F)cc2)C/C=C\C[C@@H](CC(=O)N[C@H](CO)Cc2ccccc2)C(=O)N1
  x, -3%
Cc1nc(NC(=O)c2ccc(Cl)cc2)nc2cc3c(cc12)OCO3
  7%, -6%
N#CC1=C(N)OC2=C(C(=O)CCC2)C12CCC1(CC2)OCCO1
  10%, -8%
NC(N)=Nc1nc2ccccc2o1
  0%, -4%
CCOc1ccc(N2C(=O)CC(Sc3nnnn3-c3ccccc3)C2=O)cc1 (centres undefined)
  -4%, -5%
CC(=O)c1cccc(NC(=O)N2CCCC(C(=O)c3cc(F)ccc3F)C2)c1 (centres undefined)
  0%, -18%
CC1(C)N=C(SCC(=O)Nc2ccc(Cl)cc2Cl)C(c2ccccc2)=N1
  20%, 3%
Cc1cccc(C(C)(C)C)c1OCCn1ccnc1
  -5%, 2%
CCOC(=O)Cc1c(C)nc2c(-c3ccc(Cl)cc3)c(C)nn2c1C
  -13%, 4%
COc1ccc(-n2nnnc2SC(C)C(=O)NCC(=O)Nc2ccc(F)c(F)c2F)cc1 (centres undefined)
  -2%, -2%

# Next part:
# The line under a structure holds: N370S GC mod, FEN1 inh
O=C(COc1cccnc1[N+](=O)[O-])N1CCc2ccccc2C1
  5%, -4%
O=C(NCC(=O)N(Cc1ccccc1)C(C(=O)NCC1CCCO1)c1ccccc1)c1cccs1 (centres undefined)
  2%, -7%
Cc1c(C(=O)/C=C/N(C)C)nnn1-c1ccc(Cl)c(Cl)c1
  6%, -16%
NCCCCCc1nnc(SCc2ccc(Cl)cc2Cl)o1
  -2%, 1%
Cc1nc2ccc3nc(NC(=O)C4COc5ccccc5O4)sc3c2s1 (centres undefined)
  -22%, 12%&-3%
N#Cc1ccc(OCC(=O)NCC2COc3ccccc3O2)cc1 (centres undefined)
  x, -7%
COCCn1c(-c2ccc(OC)cc2)nc2ccccc21
  x, -4%
Cc1ccccc1Nc1c(-c2ccccc2O)nc2sccn12
  x, -20%
COc1ccc(/C=C/C(=O)OCC(=O)Nc2ccc(Cl)cc2F)cc1S(=O)(=O)N1CCOCC1
  -4%, 5%
Cc1cc(C)n(CCNC(=O)c2ccc3c(c2)OCO3)n1
  -7%, 3%
COC(=O)c1[nH]c2ccc(C)cc2c1NC(=O)CN1CCC(C)CC1
  3%, -20%
NC(=O)c1sc2cc(C(F)(F)F)cnc2c1-c1cccs1
  -11%[12.8 µM], 9%
CCC[C@@H]1CCCO[C@@](C(=O)NCc2ccccn2)(C(F)(F)F)C1
  -7%, -20%&11%
Cc1noc(C)c1CSCC(=O)Nc1cc(S(=O)(=O)N2CCOCC2)ccc1OCC(F)(F)F
  -1%, -5%
CC(=O)N(Cc1ccco1)c1nc(C(=O)Nc2ccc(Cl)cc2)c(C)s1
  13%, -11%
CC1(OC(=O)c2ccc(Cl)nc2)C(=O)C=C2C=C(c3ccc(C#N)cc3)OC=C2C1=O (centres undefined)
  5%&12%, x
COC(=O)C1=C(C)NC(=O)C1(Nc1nccs1)C(F)(F)F (centres undefined)
  -29%, -3%
COc1ccc(CCC(=O)N(C)CC(=O)Nc2ccc(Cl)c(C(F)(F)F)c2)cc1
  6%, -10%
Cc1oc(-c2cccc(Cl)c2)nc1CSCC(=O)NCc1ccccc1Cl
  x, -4%
COc1ccccc1/C=N/N(C(C)=O)c1nc(-c2ccc(F)cc2)cs1
  -4%, 13%
COC(=O)c1ccc(C(=O)OC)c(NC(=O)COC(=O)C2CC2C)c1 (centres undefined)
  29%, 4%
Cc1ccn2c(=O)nc(SCC(=O)N3CCCc4ccccc43)nc2c1
  -6%, 2%
Cc1nnc(SCC(=O)NCC2CCCO2)n1-c1ccccc1 (centres undefined)
  5%, 0%
C=CCn1c(COc2ccccc2F)nnc1SCC(=O)NC(=O)NCc1ccco1
  -4%, -6%
CCOc1ccc(CCNC(=O)c2cc3c(=O)n(CC)c4ccccc4c3s2)cc1OCC
  x, -11%
CCc1c(C)[nH]n(-c2ccc(Oc3ccccc3)c(S(=O)(=O)O)c2)c1=O
  -6%, u
O=C(O)CNC(=S)N(Cc1ccccc1Cl)C1CCCC1
  -4%, 17%
COc1ccc(-n2c(=O)[nH]cc(C(=O)N3CCc4ccccc43)c2=O)cc1
  16%, 6%
CC[C@]12c3[nH]c4ccc(Cl)cc4c3CCN1C(=O)[C@@H](CC(=O)NCc1cccc(C(F)(F)F)c1)C[C@@H]2C(=O)N1CCN(C(=O)c2ccco2)CC1
  x, -18%
CC(=O)c1nnn(-c2ccc(F)cc2F)c1C
  4%, -6%

# Full records as entered above. Values in the order: N370S GC mod, FEN1 inh
# N#CC1=C(N)OC2=C(C(=O)CCC2)C12CCC1(CC2)OCCO1 as listed: 10%, -8%
# CN(C)S(=O)(=O)Nc1ccc(Oc2ccccc2)cc1 as listed: 6%, 4%
# CCOc1ccc(N2C(=O)CC(Sc3nnnn3-c3ccccc3)C2=O)cc1 (centres undefined) as listed: -4%, -5%
# NCCCCCc1nnc(SCc2ccc(Cl)cc2Cl)o1 as listed: -2%, 1%
# CCOC(=O)C1CCN(C(=O)CCn2c(=O)c3cccn3c3cccnc32)CC1 as listed: 3%, 15%

# Next part
# The line under a structure holds: N370S GC mod, FEN1 inh
CC(C)N(C(=O)CN1CCN(S(=O)(=O)c2ccc(Br)s2)CC1)C(C)C
  x, -2%
CCCCn1c(N)c(N(CC(C)C)C(=O)CCS(=O)(=O)c2ccc(C)cc2)c(=O)[nH]c1=O
  -16%, -2%
CN(Cc1ccncn1)C(=O)CC1C(=O)NCCN1Cc1cccc(Oc2ccccc2)c1 (centres undefined)
  -29%, 11%
CN(CC(=O)Nc1ccc2c(c1)CCC2)CC(=O)Nc1ccccc1Br
  20%, u
CN1CCCC(OC(=O)COc2ccccc2)C1 (centres undefined)
  4%, -2%
CCN1C(=O)/C(=C/N(C)C)c2ccccc21
  -2%, -5%
O=C(NCCCCCCOC1=NS(=O)(=O)c2ccccc21)C(=O)Nc1ccccc1
  7%, -9%
Clc1ccccc1-c1nnc2sc(-c3cccs3)nn12
  23%, -15%
CC1=CC2=NC(=O)/C(=C\c3cccn3CCOc3cc(C)ccc3C)C(=N)N2O1
  -20%, -13%
Cc1ccsc1/C=N/NC(=O)Nc1ccccc1
  u, -9%
COCCNC(=O)c1ccc(Cn2c(=S)[nH]c3cc4c(cc3c2=O)OCO4)cc1
  -8%, 0%
CCOC(=O)C1(O)Oc2cc(OC)cc(OC)c2C(=O)C1c1ccccc1 (centres undefined)
  -6%, x
C[C@]12CCC3c4ccc(OCC(=O)O)cc4CCC3C1CCC2=O (some centres undefined)
  9%, -4%
O=C(Nc1ccc(C(=O)N2CCC(N3CCCC3)CC2)cc1)c1ccc(Br)o1
  -3%, -6%
Cc1cc(C(=O)OCC(=O)N2CCC(C)CC2)c2ccccc2n1
  x, -3%
COc1ccc(C)cc1N(CC(=O)NCCSCc1ccco1)S(=O)(=O)c1ccc(C)cc1
  1%, 1%
COc1ccccc1CN1CC(C(=O)NCc2c(F)ccc(C)c2F)CCC1=O (centres undefined)
  8%, 16%
CCOC(=O)/C=C1\SC(C)C(=O)N1CC(=O)N(CCC#N)c1ccccc1 (centres undefined)
  x, 16%
O=C(CN1C(=O)COc2ccc(S(=O)(=O)N3CCOCC3)cc21)Nc1ccc(F)c(Cl)c1
  x, 1%

# These rows are one share of the data; most or all hits stand in other tables.
